Screening data as filed in PubChem BioAssay.
Sa growth 42C: inhibitors of Staphylococcus aureus growth at 42 °C; S. aureus RN4220 growth, OD600, 20 h; active compounds read low; relative growth, % (concentration not given with the values); 170,000 compounds, 0.53% hits;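 active means growth at 42 °C up to 50% and 20 or more points under that at 30 °C, or under 10% at both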;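 further: 300 nL library stock went into each well; scaled to the means of positive and negative controls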
GIV Gai3 FP: blocks GIV peptide binding to rat Galpha-i3 | P08753 | Galpha-i3/FITC-GIV peptide fluorescence polarization, 90 min; active compounds read low; scaled: aluminum fluoride 0%, vehicle 100% | percent of control (FP), % (no concentration beside the values) | 210,000 compounds, 0.42% hits;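 active means replicate mean at 85% of control or lower, very high polarization wells dropped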;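 further: wells of about 15 µL received 100 nL stock; the first replicate is given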
Target sequence (P08753 whole entry, looked up): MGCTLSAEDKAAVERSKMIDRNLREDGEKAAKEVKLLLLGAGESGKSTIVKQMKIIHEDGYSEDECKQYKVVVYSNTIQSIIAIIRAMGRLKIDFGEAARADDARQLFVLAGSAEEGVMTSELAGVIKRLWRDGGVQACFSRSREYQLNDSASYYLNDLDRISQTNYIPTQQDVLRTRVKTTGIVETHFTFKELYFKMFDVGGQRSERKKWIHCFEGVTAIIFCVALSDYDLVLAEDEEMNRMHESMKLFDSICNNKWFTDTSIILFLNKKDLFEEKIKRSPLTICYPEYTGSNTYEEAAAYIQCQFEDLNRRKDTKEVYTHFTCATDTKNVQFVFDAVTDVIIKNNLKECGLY
HCMV UL50-53 inh: inhibitors of HCMV UL50-UL53 nuclear egress complex interaction | HTRF UL50-UL53 interaction, normalized percent inhibition | 190,000 compounds, 0.15% hits | inhibition, % (test concentration not listed) | AID 1918969;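 active means both replicates at 50% or more, plus weaker picks with an unusually low signal ratio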;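 further: stock transfer was 100 nL into about 20 µL; 0% = negative control wells and 100% = wells with untagged competitor protein; inactives centre near -12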
Sa growth 42C second temp: second read-out of Sa growth 42C, no call of its own (marks repeat the call); relative growth, %; measured here: growth at 30 °C;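 optical density after 20 h as mean of two plates; 100% = untreated growth and lower means inhibition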
Active calls of the source: *; . = no result given; & = joins results of further samples.

Abbreviations: A = Sa growth 42C; B = Sa growth 42C second temp; C = GIV Gai3 FP; D = HCMV UL50-53 inh
1. Cc1cc(C)c2c(=O)n(C(=O)c3ccccc3)sc2n1
  A: 95; B: 90; C: 152; D: -215
2. CN(Cc1ccccc1)C(=O)COC(=O)c1ccc(Cl)c(N)c1
  A: 121; B: 91; C: .; D: -29
3. O=C(Cc1ccccc1)N/N=C/c1ccncc1
  A: 99; B: 93; C: 98; D: -48
4. O=C(O)c1cc(NS(=O)(=O)c2ccc3c(c2)CCCC3)cnc1N1CCCC1
  A: .; B: .; C: 92; D: -14
5. COc1cc(CCN2C(=O)CCC2(C)C(=O)N2CCCC2)cc(OC)c1OC (configuration not stated)
  A: 77; B: 84; C: 102; D: -10
6. O=C(CN1C(=O)/C(=C\c2ccc(F)cc2)Oc2ccccc21)N1CCCC1
  A: 101; B: 99; C: 98; D: -1
7. CCc1nc2nc(C)cc(N3CCN(c4cc(Cl)ccc4C)CC3)n2n1
  A: .; B: .; C: 98; D: 8
8. COC(=O)c1sc(N)c(C(=O)OC)c1Cn1c(Cl)nc2c1c(=O)n(C)c(=O)n2C
  A: 84; B: 93; C: .; D: -10
9. Cc1ccc(CNc2n[nH]c(=S)s2)cc1
  A: 40; B: 34; C: 102; D: -3
10. CCn1cc(C(=O)NCCC2=CCCCC2)c2cc(OC)c(OC)cc2c1=O
  A: 120; B: 88; C: 103; D: .
11. CC(C)c1ccc2nc(SCC(=O)NC(C)(C)C)c(C#N)cc2c1
  A: 105; B: 82; C: 104; D: -44
12. CCCC1CCC(c2ccc(OC(=O)c3cccnc3)cc2)CC1 (configuration not stated)
  A: 91; B: 97; C: 100; D: .
13. O=C(c1cnc2sc3c(n2c1=O)CCCC3)N(Cc1ccccc1)Cc1ccccc1
  A: .; B: .; C: 105; D: -22
14. O=C(CSc1nnnn1Cc1ccccc1)Nc1ccccc1Oc1ccccc1
  A: 100; B: 91; C: .; D: -11
15. COc1ccccc1NC(=O)N1Cc2c(sc3c2CCN(C)C3)-n2cccc2C1C (configuration not stated)
  A: .; B: .; C: 109; D: -7
16. O=C(c1ccccc1)c1nn(-c2ccc(C(F)(F)F)cc2)ccc1=O
  A: 93; B: 87; C: 99; D: -31
17. Cc1ccc(C(C)(C)C)c(OCC(=O)NCCc2nc3ccccc3[nH]2)c1
  A: 88; B: 86; C: 102; D: -31
18. Cc1ccc(N(C)S(=O)(=O)c2c(C)[nH]c(C)c2C(=O)N2CCCC2)cc1
  A: 100; B: 92; C: 101; D: -11
19. CCOc1ccccc1N1CC(c2nc3ccccc3n2CCOc2ccccc2OC)CC1=O (configuration not stated)
  A: 96; B: 66; C: 110; D: 4
20. COc1ccccc1-c1ccc(=O)n(CC(=O)NC(C)(C)C)n1
  A: 104; B: 83; C: 95; D: -18
21. CC1=C(c2ccc(C)cc2)S(=O)(=O)N(CC(=O)NCc2cccc(C)c2)C1=O
  A: .; B: .; C: 101; D: -36
22. CCOC(=O)c1ccc(N2CCN(c3ccc(F)cc3)CC2)c(NC(=O)Nc2ccc(CC)cc2)c1
  A: 104; B: 95; C: 107; D: .
23. CN(CN1C(=O)c2cc(Cl)c(Cl)cc2C1=O)C1CCCCC1
  A: 88; B: 87; C: .; D: -130
24. COc1ccc(Nc2nc(NN)nc(N3CCOCC3)n2)cc1
  A: .; B: .; C: 96; D: -4
25. CCOC(=O)c1cncc(C(=O)OCC)c1
  A: 96; B: 86; C: 105; D: -8
26. CCCS(=O)(=O)c1c(S(=O)(=O)CCC)c2cc(C(C)(C)C)ccn2c1C(=O)c1ccc(OC)c(OC)c1
  A: 98; B: 96; C: 102; D: 23
27. CCOc1ccc(CNC(=O)c2cnc3sc(N(CC)CC)nn3c2=O)cc1
  A: 102; B: 89; C: 105; D: .
28. Cc1ccc2occ(-c3cc(-c4ccccc4)nc4c3COc3ccccc3-4)c(=O)c2c1
  A: 93; B: 90; C: 109; D: -7
29. COc1ccc2oc(C(=O)OCC(=O)Nc3ccccc3SCC#N)c(C)c2c1
  A: 100; B: 87; C: .; D: -7
30. Cc1sc(NC(=O)CN2C(=O)CCC2=O)c(C(N)=O)c1C
  A: 87; B: 88; C: 108; D: -24
31. Cn1cnnc1Sc1ccc(Cl)cc1NC(=O)CN1C(=O)C2CC=CCC2C1=O (configuration not stated)
  A: 89; B: 95; C: .; D: 9
32. Cc1ccc(S(=O)(=O)N2CCCC(NC(=O)NCc3ccco3)C2)cc1 (configuration not stated)
  A: 91; B: 77; C: 99; D: -6
33. CC(NC(=O)Cn1cc(C(=O)C2CCCCC2)c2ccccc21)c1ccccc1 (configuration not stated)
  A: 109; B: 98; C: 99; D: .
34. CCCN(CCC)CCCNC(=O)C1CCCN(Cc2nc(-c3ccc(Cl)cc3)oc2C)C1 (configuration not stated)
  A: 88; B: 105; C: 114; D: -1
35. Cn1c(=O)c(C(=O)CSc2nncn2-c2ccccc2)c(N)n(Cc2ccccc2)c1=O
  A: 91; B: 90; C: .; D: -13
36. COc1ccccc1N1CCN(CCCNC(=O)CCc2c(C)nc3c(c2C)c(=O)n(C)c(=O)n3C)CC1
  A: 83; B: 94; C: 101; D: -11
37. CCOC(=O)c1c(N)sc2c(OC)c(Br)ccc12
  A: 52; B: 77; C: 100; D: -22
38. CC(CNC(=S)Nc1cccc(Cl)c1)CSc1ccc(Cl)cc1 (configuration not stated)
  A: -0.4*; B: -0.1*; C: 98; D: .
39. CCN(C(=O)c1cccnc1SCc1c(C)noc1C)c1nc2c(C)cccc2s1
  A: 96; B: 81; C: .; D: -22
40. CCCCOc1nc2ccccc2nc1C(C#N)C(=O)OCC (configuration not stated)
  A: 76; B: 75; C: .; D: -55
41. CC(=O)c1c(C)oc2c1cc(NS(=O)(=O)c1c(C)cc(C)cc1C)c1ccccc12
  A: 104; B: 86; C: 97; D: .
42. NS(=O)(=O)c1ccc(CNC(=O)c2ccncc2)cc1
  A: 84; B: 91; C: .; D: -24
43. CCC1(C)NC(=O)N(NC(=O)Cn2cnc3c2c(=O)n(C)c(=O)n3C)C1=O (configuration not stated)
  A: 92; B: 87; C: .; D: -10
44. CCOc1ccc(C2c3c(-c4ccccc4O)n[nH]c3C(=O)N2Cc2ccncc2)cc1 (configuration not stated)
  A: 95; B: 57; C: 104; D: -22
45. CC(=O)NC1=NN(C(C)=O)C(c2ccco2)S1 (configuration not stated)
  A: 109; B: 90; C: 104; D: -8
46. Cc1cccc2c(=O)c(NC(=O)NCCCO)c[nH]c12
  A: .; B: .; C: 101; D: -49
47. NNC(=O)CNC(=O)c1cccc2ccccc12
  A: 90; B: 86; C: 102; D: -33
48. O=C(CNc1ccc(F)cc1F)N1CCN(S(=O)(=O)c2ccccc2)CC1
  A: 73; B: 84; C: .; D: -34
49. CCOC(=O)c1oc2cc(OCc3ccccc3)ccc2c(=O)c1-c1cnn(-c2ccccc2)c1
  A: .; B: .; C: 106; D: -6
50. Cc1nc2cc(-c3cccc(F)c3)nn2c(C)c1CCC(=O)NC(C)c1ccccc1 (configuration not stated)
  A: 101; B: 78; C: 100; D: -6
51. O=C(Nc1nccs1)C1CCCN(S(=O)(=O)c2c[nH]c(C(=O)N3CCCC3)c2)C1 (configuration not stated)
  A: .; B: .; C: 103; D: -11
52. CCCS(=O)(=O)c1c(S(=O)(=O)CCC)c2cc(CC)ccn2c1C(=O)c1ccc(F)cc1
  A: 95; B: 84; C: .; D: -9
53. CCOc1ccc(CNC(=O)c2cnc(SC)nc2C)cc1
  A: 113; B: 98; C: 111; D: .
54. CC(=O)NC(C)c1ccccc1 (configuration not stated)
  A: 105; B: 94; C: 105; D: -9
55. O=C(Nc1ccc(O)c(-c2nc3ccccc3o2)c1)c1ccc(-c2cccc(Cl)c2)o1
  A: 115; B: 93; C: 102; D: -19
56. CC(c1ccco1)N(C(=O)C1CC1)c1ccccn1 (configuration not stated)
  A: 129; B: 89; C: .; D: -12
57. CCc1cccc(N2C(=O)Nc3ccccc3N2O)c1
  A: 105; B: 89; C: 101; D: -22
58. CCc1nn2c(C)cc(C)nc2c1C
  A: 95; B: 85; C: 101; D: -12
59. CCn1c(COc2ccccc2OC)nnc1SCC(=O)c1c(C)n(C)c2ccccc12
  A: 65; B: 92; C: 96; D: .
60. Cc1ccc(CN(C)CC(=O)Nc2c(C(C)C)cccc2C(C)C)o1
  A: 95; B: 84; C: .; D: 8

Continuation.
Abbreviations: A = Sa growth 42C; B = Sa growth 42C second temp; C = GIV Gai3 FP; D = HCMV UL50-53 inh
61. O=C(COc1ccc(Br)cc1Br)NCCc1ccccc1
  A: 93; B: 93; C: 98; D: -3
62. COc1ccc(NC(=O)c2c(NCc3cccs3)sc3c2CCCC3)cc1
  A: 92; B: 77; C: 102; D: .
63. C=CCC(C)(NCc1ccccc1)c1ccco1 (configuration not stated)
  A: 69; B: 77; C: 105; D: -6
64. O=C(OCC1CC1)c1cc2ccccc2o1
  A: 112; B: 62; C: .; D: -3
65. CCCc1cc(=O)n2[nH]c(CNc3ccccc3Cl)nc2n1
  A: .; B: .; C: 103; D: -36
66. O=C(c1ccc(F)cc1)c1cn(Cc2ccccc2)c2cc3c(cc2c1=O)OCO3
  A: 91; B: 79; C: 100; D: -10
67. NC(=O)COc1cccc(-n2cnnn2)c1
  A: 94; B: 100; C: 96; D: 2
68. O=C(Nc1sc2c(c1C(=O)Nc1ccccc1Cl)CCCC2)c1ccccc1F
  A: 102; B: 86; C: 105; D: -36
69. CCC(CO)NCC(O)c1ccccc1 (configuration not stated)
  A: 100; B: 92; C: .; D: 1
70. COc1ccc(S(=O)(=O)N(CC(=O)N2CCC(C)CC2)c2ccc(C)cc2)cc1
  A: 103; B: 90; C: 100; D: -7
71. CC(C)(C)N=c1scc(-c2ccccc2)n1-c1ccccc1
  A: 91; B: 98; C: .; D: 12
72. Cc1ccc(-n2c(/C=C/N(C)C)c([N+](=O)[O-])c3ccc(O)c(CN(C)C)c32)cc1
  A: .; B: .; C: 108; D: 19
73. O=C(CCS(=O)(=O)c1nc(-c2ccc3c(c2)OCO3)cc(C(F)(F)F)n1)Nc1ccc(F)cc1F
  A: 91; B: 78; C: 107; D: -37
74. O=C(CCc1ccccc1)N/N=C/c1ccco1
  A: 113; B: 77; C: 102; D: -42
75. CCc1ccccc1NC(=O)N1CCc2cc(OC)c(OC)cc2C1CC(=O)OC (configuration not stated)
  A: 112; B: 100; C: 109; D: .

Entries of single compounds, quoted from the list:
`COc1ccc(S(=O)(=O)N(CC(=O)N2CCC(C)CC2)c2ccc(C)cc2)cc1` in the list: Sa growth 42C: 103; Sa growth 42C second temp: 90; GIV Gai3 FP: 100; HCMV UL50-53 inh: -7
`O=C(Nc1sc2c(c1C(=O)Nc1ccccc1Cl)CCCC2)c1ccccc1F` in the list: Sa growth 42C: 102; Sa growth 42C second temp: 86; GIV Gai3 FP: 105; HCMV UL50-53 inh: -36
`CCc1ccccc1NC(=O)N1CCc2cc(OC)c(OC)cc2C1CC(=O)OC` (configuration not stated) in the list: Sa growth 42C: 112; Sa growth 42C second temp: 100; GIV Gai3 FP: 109; HCMV UL50-53 inh: .

Next section
Abbreviations: A = Sa growth 42C; B = Sa growth 42C second temp; C = GIV Gai3 FP; D = HCMV UL50-53 inh
76. Cc1ccc(-c2nn(CC(=O)NC3CCCCC3)c3c2cnc2ccc(F)cc23)cc1C
  A: 86; B: 101; C: 96; D: .
77. O=C(/C=C/c1ccccc1)OCC(=O)c1ccc(-n2nncc2-c2ccco2)cc1
  A: 103; B: 92; C: .; D: -32
78. CCc1nnc(NC(=O)CN2C(=O)C3CCCCN3c3ccc(S(=O)(=O)N(C)C)cc32)s1 (configuration not stated)
  A: .; B: .; C: 94; D: -8
79. CC(C)(CO)Cc1cc(C(C)(C)C)c(O)c(C(C)(C)C)c1
  A: .; B: .; C: 95; D: 4&14
80. CC1=C(C(=O)OCc2ccc3c(c2)OCO3)C(c2ccc(Br)cc2)NC(=O)N1 (configuration not stated)
  A: .; B: .; C: 100; D: 0
81. O=C1CSc2ccc(C(=O)N3CCN(c4cccc(C(F)(F)F)c4)CC3)cc2N1
  A: 102; B: 71; C: 99; D: .
82. Cc1ccc2onc(CC(=O)N3CCN(c4ccccc4)CC3)c2c1
  A: 86; B: 93; C: 99; D: 0
83. Cc1ccnc(NC(=O)CCNS(=O)(=O)c2ccc3c(c2)c(=O)n(C)c(=O)n3C)c1
  A: 91; B: 92; C: 105; D: .

In another format: entries from further up.
77. O=C(/C=C/c1ccccc1)OCC(=O)c1ccc(-n2nncc2-c2ccco2)cc1
78. CCc1nnc(NC(=O)CN2C(=O)C3CCCCN3c3ccc(S(=O)(=O)N(C)C)cc32)s1 (configuration not stated)
79. CC(C)(CO)Cc1cc(C(C)(C)C)c(O)c(C(C)(C)C)c1
Screen / compound no.	77	78	79
Sa growth 42C	103	.	.
Sa growth 42C second temp	92	.	.
GIV Gai3 FP	.	94	95
HCMV UL50-53 inh	-32	-8	4&14
